# Screening results from PubChem.
# TRPML1 blocker – inhibitors of human TRPML1 channel; 0.02% of 390,000 active; TRPML1-inducible cells, Ca2+ dye fluorescence, FDSS; stronger effect = lower value; inhibition of EC80 agonist-evoked calcium signal; Q9GZU1; activity change, negative = inhibition, % (concentration not given with the values); in the data active means activity change below about -50%; inconclusive means about -30% to -50%; inactive means above about -30%;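 also: stimulus is agonist 54-4 at its EC80 concentration; % is scaled to controls: 0 for no effect and ±100 for the full control effect; compound concentration not given in the record; the text of the record puts the active cut at -80%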
# Target sequence (Q9GZU1 whole entry, looked up): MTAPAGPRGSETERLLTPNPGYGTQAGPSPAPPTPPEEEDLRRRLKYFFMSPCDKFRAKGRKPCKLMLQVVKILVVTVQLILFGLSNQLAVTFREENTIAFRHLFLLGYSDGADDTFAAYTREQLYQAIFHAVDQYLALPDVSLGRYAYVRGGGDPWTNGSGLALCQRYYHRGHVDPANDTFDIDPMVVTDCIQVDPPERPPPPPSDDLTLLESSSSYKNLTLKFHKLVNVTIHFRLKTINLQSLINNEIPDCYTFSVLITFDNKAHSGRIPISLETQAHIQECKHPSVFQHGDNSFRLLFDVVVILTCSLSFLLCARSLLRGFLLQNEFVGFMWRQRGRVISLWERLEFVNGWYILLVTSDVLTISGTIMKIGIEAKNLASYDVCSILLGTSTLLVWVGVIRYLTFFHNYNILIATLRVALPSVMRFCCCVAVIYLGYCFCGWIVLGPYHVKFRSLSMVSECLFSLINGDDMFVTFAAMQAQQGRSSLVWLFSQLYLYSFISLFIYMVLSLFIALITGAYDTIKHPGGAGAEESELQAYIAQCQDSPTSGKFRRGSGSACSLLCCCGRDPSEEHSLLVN
#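 Tet-induced TRPML1-DL cells loaded with Ca8 no-wash calcium dye were read kinetically on FDSS. Compound addition was followed by EC80 agonist 54-4 (4 uM final); inhibition was read over 110 s.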
# TRPV1 PAM – human TRPV1 potentiation; TRPV1-expressing cells, Fluo-8 calcium influx, capsaicin EC20 potentiation; host cell line not named in the record; control for the full effect not named in the record; potentiation, % at 8.33 µM; 0.02% of 320,000 active; AID 540277; active means potentiation above 80%; inconclusive means 30% to 80%; inactive means below 30%; also: 0% is about no effect
#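 Fluo-8 calcium influx in TRPV1-expressing cells, kinetic read (ex 480/em 520 nm). Compound added and read 3 min for agonist activity, followed by capsaicin at EC20 final and 2 min further read for enhancement.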
# CtBP-E1A blk – inhibitors of CtBP/E1A interaction. AlphaScreen GST-E1A/His-CtBP binding, 1536-well; stronger effect = lower value; control for the full effect not named in the record. activity change, % (concentration not given with the values). 0.49% of 340,000 active; in the data active means activity change below about -65%; inconclusive means about -30% to -65%; inactive means above about -30%; also: % is scaled to controls: 0 for no effect and ±100 for the full control effect
#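 Steps: dispense buffer (Tris pH 8.0, NaCl 300 mM, TCEP 1 mM, BSA, Tween 20); add 5X protein mix (GST-E1A, His-CtBP, 125 nM each); pin 23 nL compound; 2 h at 37 °C, dark; add 5X beads (50 ug/mL); 1 h; read.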
# TRPML1 agonist – human mucolipin-1 channel agonism | Q9GZU1 | TRPML1-expressing cells, Ca2+ dye fluorescence, FDSS; host cell line not named in the record; reference of the full effect not given here | activation, % (no concentration beside the values) | 0.12% of 410,000 active; in the data active = activation above about 50%; inconclusive = about 30% to 50%; inactive = below about 30%; also: 0% is about no effect; the text of the record puts the active cut at 80%
#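 Tet-induced TRPML1-DL cells, 1,500 per well, cultured overnight, were loaded with a no-wash Ca2+ dye for 45–90 min. Calcium fluorescence was recorded on the FDSS for 110 s after compound addition, before the EC80 agonist (4 uM 54-4) was added.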
# Six1-Eya2 blk – blocks human Six1 binding to Eya2; Q15475+O00167; AlphaScreen GST-Six1/His-Eya2 binding, biochemical; stronger effect = lower value; control for the full effect not named in the record; 0.56% of 360,000 active; activity change, % (test concentration not listed); in the data active = activity change below about -65%; inconclusive = about -30% to -65%; inactive = above about -30%; also: % is scaled to controls: 0 for no effect and ±100 for the full control effect; compound concentration not given in the record
#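 Homogeneous AlphaScreen proximity assay pairing GST-Six1 with His-tagged Eya2 (added as 5X mix: 250 nM and 500 nM) in 50 mM Tris pH 8.0, 300 mM NaCl, 1 mM TCEP. Glutathione donor and nickel acceptor beads; 1 h, 37 °C, dark.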
# D2 PAM – potentiates the human D2 dopamine receptor allosterically | potentiation, % (concentration not given with the values) | P14416 | 0.23% of 360,000 active | AID 624464 | DiscoveRx D2 beta-arrestin cells, luminescence, 90 min; 100% = 57 uM dopamine signal; active = potentiation of 50% or more; inconclusive = 30% to 50%; inactive = 30% or less;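 also: compound concentration not given in the record; tested on top of an EC20 dose of dopamine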
# Target sequence (P14416 whole entry, looked up): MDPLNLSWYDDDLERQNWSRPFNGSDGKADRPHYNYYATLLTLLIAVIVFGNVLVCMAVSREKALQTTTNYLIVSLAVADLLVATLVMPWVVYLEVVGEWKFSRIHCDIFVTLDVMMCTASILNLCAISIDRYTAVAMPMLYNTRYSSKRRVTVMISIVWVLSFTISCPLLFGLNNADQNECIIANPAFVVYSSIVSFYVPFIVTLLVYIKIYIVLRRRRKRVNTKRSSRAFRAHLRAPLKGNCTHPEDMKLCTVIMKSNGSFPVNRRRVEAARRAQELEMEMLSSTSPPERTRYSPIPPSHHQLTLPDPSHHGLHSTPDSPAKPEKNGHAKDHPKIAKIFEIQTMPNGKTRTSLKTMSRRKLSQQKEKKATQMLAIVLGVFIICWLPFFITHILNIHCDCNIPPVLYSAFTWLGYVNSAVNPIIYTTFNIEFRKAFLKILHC
#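 D2 cells co-treated with compound plus 50 nM dopamine (EC20) for 90 min at 37 deg C to detect potentiation. Beta-arrestin recruitment was read as enzyme-fragment luminescence after 1 h at ambient temperature. Full response was set by 57 uM dopamine.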
# * marks the source's active call; other numbers are inactive results; ? = inconclusive; nt = no result given.
SMILES,TRPML1 blocker,TRPV1 PAM,CtBP-E1A blk,TRPML1 agonist,Six1-Eya2 blk,D2 PAM
CCc1cccc(CC)c1N(COC)C(=O)Cn1c(CO)nc2ccccc21,-1.2,-4.7,1.4,0.4,2.0,-9.9
COc1ccc(NC(=O)N2CC(C)OC(C)C2)cc1OC (centres undefined),3.8,2.8,4.3,-0.4,2.3,0.4
Cc1nc(SCC(=O)N(CC(C)C)C2CCS(=O)(=O)C2)c2ccccc2n1 (centres undefined),-5.3,1.5,-3.8,0.0,6.7,-16.8
CC(=O)NCC(=O)NC1CCCc2c1cnn2-c1ccccc1F (centres undefined),0.6,-12.7,9.3,0.3,3.6,-1.4
CC(=Nc1ccccc1)C1=C(O)CCCC1=O,11.8,-4.6,-10.9,0.0,9.1,-2.8
CCN(CC)C(=O)C(=O)c1ccn(-c2c(C)csc2C(=O)OC)c1,-11.1,26.0,-4.9,-0.2,6.4,-1.2
Cc1ccc(OCC(=O)NCC(=O)n2nc(C)cc2C)cc1,5.3,nt,10.2,-0.2,0.3,-14.1
O=C(Nc1c(Cl)cccc1Cl)C1CCC1,-7.4,11.9,14.6,3.8,2.6,-13.8
COc1cc(/C=N/NC(=O)c2cccc3ccccc23)cc(OC)c1OC,-5.7,-2.0,-1.9,0.4,-2.5,3.3
CCOC(=O)C1CC2=C(CCCC2=O)N(Cc2ccccc2)C1=O (centres undefined),35.1,nt,3.6,4.7,12.7,-1.7
CCSC1=N/C(=C\c2ccc(C(=O)O)cc2)C(=O)S1,11.1,-13.0,6.9,0.0,8.7,-9.9
CCn1c(Cc2ccccc2)nnc1SC(C)C(=O)NC1CC1 (centres undefined),12.0,4.3,2.6,-0.4,0.6,5.3
O=S(=O)(NCC(c1cccnc1)N1CCN(c2ccccc2)CC1)c1cccs1 (centres undefined),4.1,5.4,-2.2,-1.5,-11.0,9.2
CN(N)c1nc(-c2ccccc2)cc(-c2ccccc2)n1,32.4,-3.2,-3.1,1.0,10.8,-5.0
COc1cc(S(=O)(=O)N2CC(=O)Nc3ccccc32)ccc1NC(C)=O,3.4,-1.4,19.3,-0.5,2.1,-10.7
CCNc1nc(Cl)nc(N(NC(C)=O)C(C)CC)n1 (centres undefined),10.5,-0.4,3.6,-0.7,2.6,-2.2
CC(=O)c1ccc(S(=O)(=O)NCCC(=O)NCCc2c[nH]c3ccccc23)cc1,29.4,23.2,-3.3,0.0,-7.1,-10.0
CCn1c(=O)c(C(=O)NCc2ccc(Cl)cc2)c(O)c2ccccc21,2.7,18.2,10.2,-0.1,3.8,-2.7
C/C(=N/NC(=O)c1cccc(N2CCCC2=O)c1)c1ccncc1,-6.7,?,4.1,-0.6,5.9,-4.4
COc1cc(NC(=O)C2CCN(S(=O)(=O)c3ccc4c(c3)CC(C)N4C(C)=O)CC2)cc(OC)c1OC (centres undefined),-20.9,6.0,-20.1,-0.7,-16.3,-28.1
CCn1cc(C(=O)N[C@@H](CCSC)C(=O)NCCOC)c(=O)c2cc3c(cc21)OCO3,50.2,-1.2,1.5,0.1,-0.3,-9.5
NC(=O)C(=O)N/N=C/c1c[nH]c2ccc(Br)cc12,-11.4,1.4,nt,1.5,-0.3,-3.4
C/C(=N\NC(=O)c1cccnc1)c1c(O)cc(C)oc1=O,-4.8,-2.1,-0.6,-0.6,-1.3,2.9
N#Cc1cccc(NC(=O)COC(=O)c2ccc[n+]([O-])c2)c1,8.7,nt,-2.0,0.0,-7.2,-18.7
Cc1cc(C)cc(NC(=O)COC(=O)c2cc(C)oc2C)c1,10.2,2.0,7.1,3.7,-6.4,-8.5

# 7 compounds out of the list, sorted by length of the SMILES, rising:
SMILES,TRPML1 blocker,TRPV1 PAM,CtBP-E1A blk,TRPML1 agonist,Six1-Eya2 blk,D2 PAM
O=C(Nc1c(Cl)cccc1Cl)C1CCC1,-7.4,11.9,14.6,3.8,2.6,-13.8
COc1ccc(NC(=O)N2CC(C)OC(C)C2)cc1OC (centres undefined),3.8,2.8,4.3,-0.4,2.3,0.4
C/C(=N/NC(=O)c1cccc(N2CCCC2=O)c1)c1ccncc1,-6.7,?,4.1,-0.6,5.9,-4.4
N#Cc1cccc(NC(=O)COC(=O)c2ccc[n+]([O-])c2)c1,8.7,nt,-2.0,0.0,-7.2,-18.7
O=S(=O)(NCC(c1cccnc1)N1CCN(c2ccccc2)CC1)c1cccs1 (centres undefined),4.1,5.4,-2.2,-1.5,-11.0,9.2
Cc1nc(SCC(=O)N(CC(C)C)C2CCS(=O)(=O)C2)c2ccccc2n1 (centres undefined),-5.3,1.5,-3.8,0.0,6.7,-16.8
CC(=O)c1ccc(S(=O)(=O)NCCC(=O)NCCc2c[nH]c3ccccc23)cc1,29.4,23.2,-3.3,0.0,-7.1,-10.0

# (further entries)
SMILES,TRPML1 blocker,TRPV1 PAM,CtBP-E1A blk,TRPML1 agonist,Six1-Eya2 blk,D2 PAM
O=C1c2ccccc2C(=O)N1CCOc1cccc(Br)c1,10.0,-4.1,12.0,3.6,27.4,-17.7
CCOc1cc(-c2nc(-c3ccccc3)c(-c3cc([N+](=O)[O-])ccc3C)[nH]2)ccc1O,1.4,5.9,-15.7,0.7,-26.4,-6.4
CCOc1ccccc1CNS(=O)(=O)c1cc(-c2cc(C)no2)ccc1C,-15.0,-12.9,-0.5,0.9,-0.5,-1.0
O=C(NNC(=O)c1ccc2nonc2c1)Nc1ccc(Cl)cc1,11.1,3.6,-1.4,1.4,-4.2,-9.4
CCc1c(C)sc2nc3c(C(=O)N4CCOCC4)cc(C(=O)c4ccccc4O)cn3c(=O)c12,25.2,2.6,-5.3,2.2,-8.0,2.4
O=C(C1=C(O)C(=O)N(CCCn2ccnc2)C1c1ccccc1)c1ccco1 (centres undefined),2.1,6.5,-1.5,0.2,-0.3,-16.3
COc1cccc(Nc2nnc(SCc3cc([N+](=O)[O-])cc4c3OCOC4)s2)c1,0.2,0.8,-6.9,0.0,-25.5,-4.0
CC[C@@H](CCC=C(C)C)C(=O)N(Cc1ccccc1)c1ccccc1,-3.9,-17.4,19.0,0.0,22.1,-2.7
CCOC(=O)/C=C1\NC(C)(C)Cc2cc(OC)c(O)cc21,-4.9,-17.3,1.9,-0.5,-8.5,12.1
CC(=O)Nc1ccc2[nH]c(C)cc(=O)c2c1,-4.4,4.1,-3.8,0.3,3.7,-11.1
c1csc(-c2csc3nc(CN4CCOCC4)nc(NCc4ccc5c(c4)OCO5)c23)c1,8.2,-13.3,-21.3,-0.8,-28.6,-0.1
COCCn1c(C)cc(C(=O)COC(=O)c2ccc3ncsc3c2)c1C,-15.5,-15.9,-6.6,0.5,-11.0,-1.5
CCO[C@@H]1OC(C(=O)Nc2ccccc2)=C[C@H](c2csc3ccccc23)[C@H]1CCCO,-8.6,-14.5,1.5,0.5,2.8,-63.5
COc1ccc(C(=O)c2nc3c(n2O)CCCCC3)cc1,-6.3,-14.9,3.6,-1.2,-4.2,-9.4
N#Cc1ccc(S(=O)(=O)N2CCC(N3CCCCC3)CC2)cc1,5.5,-10.7,5.2,0.3,5.0,-1.5
O=C(CN1CCS(=O)(=O)CC1)NNC(=O)C1CCCCC1,6.8,0.6,-3.6,0.2,2.9,-2.4
Cc1nc([N+](=O)[O-])c(Br)n1CC(=O)c1ccc(F)cc1,14.1,13.3,4.0,-0.8,4.2,4.2
Cc1ccccc1Nc1nnc(SCC(=O)NC(=O)NCc2ccco2)s1,-0.4,10.5,-2.2,1.9,-6.7,-4.8
O=C(CSc1nc2ccccc2o1)Nc1nc(-c2ccccc2)cs1,-8.4,16.2,-6.8,0.0,-1.3,-12.6
COCCCN(C(=O)c1ccccc1)c1nc(-c2ccc(OC)cc2)cs1,54.2,-3.2,-3.2,2.0,3.4,-13.0
COCc1c(C(=O)N/N=C\c2cccs2)nnn1-c1nonc1N,0.6,-0.9,1.4,0.4,-4.3,-2.7
CS(=O)(=O)N1CCC(C(=O)Nc2ccc(C(F)(F)F)cc2)CC1,-8.9,-15.2,-0.7,-0.4,2.2,-6.4
O=C(CN(c1cc(Cl)ccc1Cl)S(=O)(=O)c1ccccc1)N1CCOCC1,17.9,-25.8,-2.2,0.0,0.4,-16.5
Cc1nc2ccc(NC(=O)N3CCC(c4ccccc4)C3)cc2nc1C (centres undefined),3.8,10.3,-2.3,-0.9,-7.7,-16.2
COc1ccc(CN(C)CC(O)COc2ccc(C(=O)c3ccccc3)cc2)c(OC)c1OC (centres undefined),-9.3,-12.8,-3.9,0.5,-22.8,-12.1

# Next part
SMILES,TRPML1 blocker,TRPV1 PAM,CtBP-E1A blk,TRPML1 agonist,Six1-Eya2 blk,D2 PAM
Cc1ccc(NC(=O)C/C(N)=N/OC(=O)Nc2cccc(Cl)c2)cc1,2.8,7.0,4.2,-0.5,-2.5,2.4
Cc1cc(C)c(-c2csc(NC(=O)COC(=O)c3ccc4c(c3)OCO4)n2)c(C)c1,-1.0,3.9,nt,0.7,2.9,-7.3
Clc1ccc(Nc2nc(C3CC3)cs2)cc1,-2.6,12.8,-1.3,0.1,3.2,-9.1
C/C(Cl)=C\Cn1c(N2CCCC2)nc2c1c(=O)[nH]c(=O)n2C,-13.9,9.6,-1.2,-1.1,-6.0,-12.9
CCOC(=O)C1CCN(C(=O)c2ccc(Cl)c(NC3=NC4CS(=O)(=O)CC4S3)c2)CC1 (centres undefined),-9.7,2.9,0.8,0.2,-0.6,-1.3
COc1ccc(CNC(=O)[C@H](Cc2ccccc2)NC(=O)C2CCNCC2)cc1,-1.1,10.8,0.0,-0.1,3.0,5.5
COc1ccccc1N1CCN(C2CCN(S(=O)(=O)c3ccc(C)cc3)CC2)CC1,-13.6,-6.5,-6.4,1.3,-1.0,-5.5
COc1ccc(CNC(=O)CSCc2cnn(-c3ccccc3)c2-n2cccc2)cc1,-7.0,-14.8,-0.6,2.6,-3.1,8.5
COc1ccc(Cc2noc(CN3CCNC(=O)CC3)n2)cc1OC,4.3,-0.3,5.8,1.1,1.3,-4.5
Clc1cccc(-c2nc3ccc(Cl)cn3c2Cc2ccccc2)c1,11.9,nt,6.1,1.4,10.1,-6.3
S=C(NCCc1ccccc1)Nc1ccc(Cl)cc1Cl,-5.6,-6.1,6.6,-0.1,0.8,-10.9
Cc1nonc1CC(=O)N1CCCC(C(=O)c2cccc(C(F)(F)F)c2)C1 (centres undefined),-24.8,-8.6,1.9,0.4,23.1,-9.6
CCC(=O)c1cn(CC(=O)Nc2cccc(OC)c2)c2ccccc12,0.4,3.5,0.0,2.0,-4.4,-3.9
S=C(NCCc1ccccc1)Nc1ncccn1,12.6,nt,-1.0,1.0,1.7,-29.5
Cc1ccc(NC(=O)OCCN2CCN(Cc3ccccc3)CCC2=O)cc1,8.0,-5.3,1.3,-1.0,2.1,-5.0
C[C@H]1CN([C@@H](C)CO)C(=O)c2cc(Br)cnc2O[C@@H]1CN(C)C(=O)CN(C)C,-16.9,nt,-10.6,-0.3,2.4,-1.0
N=C1c2ccccc2-c2ccccc21,4.8,nt,2.2,0.0,17.7,-8.2
CCc1nn(C(C)C(=O)N(C)Cc2ccccc2)c(=O)c2cc3occc3n12 (centres undefined),8.2,-14.6,2.0,-1.0,5.0,6.3
Cc1ccc(CSCCNS(=O)(=O)c2ccc([N+](=O)[O-])cc2)cc1,3.2,-15.8,-20.0,0.1,-26.5,5.9
CCN1C(=O)CSc2ccc(C(=O)NCCCN3CCOCC3)cc21,-13.7,0.5,1.1,3.3,-0.5,-10.3
